High-throughput results as filed in PubChem BioAssay.
NPR1 antag = antagonists of human natriuretic peptide receptor Npr1 | Potency, µM (titrated, usually from 46.3 µM), inactives show at the highest dose activity change, negative = inhibition, actives largely listed as inhibitors | hit rate 1.6% among 76,000 | HEK293 hNpr1 GloSensor cGMP, ANP-stimulated luminescence | P16066 | AID 1347048; active = well fitted inhibition curve with a large enough effect; inconclusive = small, poorly fitted or top-dose-only effect; inactive = no such curve, though single readings can be large or run the other way;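 also: nearly all actives have a fitted effect of over 60% in size; nearly all hits also lower the signal before the agonist is added; a reference antagonist and vehicle were the controls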
Target sequence (P16066 whole entry, looked up): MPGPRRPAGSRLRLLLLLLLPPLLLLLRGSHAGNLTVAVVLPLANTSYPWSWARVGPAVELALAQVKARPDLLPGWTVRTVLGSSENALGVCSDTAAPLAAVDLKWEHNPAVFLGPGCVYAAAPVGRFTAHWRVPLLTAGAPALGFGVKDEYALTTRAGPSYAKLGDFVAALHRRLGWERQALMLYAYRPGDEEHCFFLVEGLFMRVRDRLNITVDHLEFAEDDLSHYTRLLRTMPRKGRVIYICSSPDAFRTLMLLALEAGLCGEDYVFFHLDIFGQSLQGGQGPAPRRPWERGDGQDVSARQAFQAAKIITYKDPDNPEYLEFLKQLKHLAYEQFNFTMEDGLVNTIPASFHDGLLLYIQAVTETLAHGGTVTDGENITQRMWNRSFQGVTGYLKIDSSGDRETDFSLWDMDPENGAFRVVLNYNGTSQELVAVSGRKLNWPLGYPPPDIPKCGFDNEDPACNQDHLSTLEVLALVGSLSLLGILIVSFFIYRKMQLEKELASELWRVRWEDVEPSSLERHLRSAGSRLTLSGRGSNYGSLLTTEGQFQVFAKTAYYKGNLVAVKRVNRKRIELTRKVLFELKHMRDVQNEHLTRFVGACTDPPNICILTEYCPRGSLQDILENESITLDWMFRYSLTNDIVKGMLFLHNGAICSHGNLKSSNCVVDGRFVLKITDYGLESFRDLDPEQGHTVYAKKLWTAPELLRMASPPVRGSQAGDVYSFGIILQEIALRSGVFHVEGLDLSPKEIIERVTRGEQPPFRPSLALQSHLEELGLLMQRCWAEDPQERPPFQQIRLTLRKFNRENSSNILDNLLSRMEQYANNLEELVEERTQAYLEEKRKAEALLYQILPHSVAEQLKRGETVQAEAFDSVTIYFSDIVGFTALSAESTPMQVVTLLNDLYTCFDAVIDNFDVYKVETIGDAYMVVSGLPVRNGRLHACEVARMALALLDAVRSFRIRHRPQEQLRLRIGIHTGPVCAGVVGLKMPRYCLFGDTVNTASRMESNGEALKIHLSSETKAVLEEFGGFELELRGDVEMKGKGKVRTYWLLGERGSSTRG
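Compound pre-incubated 30 min at room temperature on GloSensor-loaded HEK293 cells stably carrying hNpr1 and the pGS-40F cGMP biosensor. Stimulation uses hNppA at 0.1 nM final; luminescence is taken at baseline and 20 min post-agonist.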
Numbers without * were called inactive; u = inconclusive; & = joins results of further samples; [ ] = another dose, or the depositor's remark. % is scaled to controls: 0 for no effect and ±100 for the full control effect; potency is read from the fitted curve at half-maximal effect. An excerpt; count on the stated rates, not on these rows.

SMILES	NPR1 antag
Cc1nnc(CN(C)c2ccc(-c3nc(CCCc4ccccc4)no3)cn2)o1	u
COc1ccc(CNC(=O)C[C@@H]2C[C@@H](C(C)C)[C@H](CNC(=O)c3ccc(C#N)cc3)C=C2C)cc1	-10%
CN1C[C@@H](NC(=O)c2ccccn2)C[C@H]1c1nc(-c2cccnc2)no1	1%[70.6 µM]
Cc1nc2cccnc2n1CC1CCCN(S(=O)(=O)c2cccc(Br)c2)C1 (configuration not stated)	u
O=C(c1cc(F)ccc1F)N1CCN(C(=O)c2nnn3c2COC(c2ccccc2)C3)CC1 (configuration not stated)	-4%
COc1ccc2c(c1)OCC(CNC(=O)c1noc3c1CCCC3)C2 (configuration not stated)	-2%
O=C(Nc1ccc(F)cc1F)N[C@H]1C[C@H]2C(=O)NC[C@@H](CCC(=O)N3CCc4ccccc43)N2C1	-1%
O=C(Cc1cccc(F)c1)N1CCN(c2cc(-c3cccs3)[nH]n2)CC1	7%
CCN(C(=O)CN1C(=O)NC2(CCS(=O)(=O)CC2)C1=O)c1ccccc1	6%
COCC1(C(=O)N2C[C@@H](C(=O)O)[C@H](c3ccccc3OC)C2)CCC1	-1%
COc1ccccc1-n1cc(C(=O)N2CCc3c(Cl)cccc3C2)cn1	u
Cc1ccc(-c2ccnc(N3CCC(N(C)Cc4ccon4)CC3)n2)c(C)n1	5%
COc1cccc(CNC(=O)C2CCCCC(=O)N2)c1OC (configuration not stated)	-17%
CCC[C@H]1CN(CCS(C)(=O)=O)C[C@@H]1NC(=O)c1ncoc1CC	-2%
O=C(C[C@@H]1C[C@H]2O[C@H](CNC3Cc4ccccc4C3)[C@@H](O)[C@H]2O1)N1CCC(F)(F)C1	6%[70.6 µM]
CN(Cc1ccc(-c2ccccc2)cc1)Cc1ccccc1Cl	7%[70.6 µM]
COc1ccc(C(=O)N2CCCCCNC(=O)[C@@H]3CCCC[C@@H]32)cc1	-1%
Cn1cnnc1CC1CCN(C(=O)Nc2ccccc2)C1 (configuration not stated)	-2%
COCCN(C)S(=O)(=O)c1cccc(C(=O)NC(C)C2=CCCCC2)c1 (configuration not stated)	6%
CS(=O)(=O)N1CC2(CCCN2Cc2cccc(C(N)=O)c2)Cc2ccccc21 (configuration not stated)	1%
COc1ccccc1CN1C(=O)COC[C@@H]1[C@H](O)c1ccc(NC(=O)c2ccccc2)cc1	-9%
COc1ccccc1CN[C@H]1CC(C)(C)[C@@H]2C[C@@](C)(O)CC[C@]12CCC(=O)N1CCOCC1	-2%
COc1ccc(-c2cc(N3CCCC(NC(=O)c4ccc5ncccc5c4)C3)n[nH]2)cc1 (configuration not stated)	-22%
NC(=O)C1(C(=O)N2CCc3cc(S(=O)(=O)Nc4cccnc4)ccc3C2)CC1	-1%
CSc1cccc(N2C(=O)[C@@H]3C[C@@H](NC(=O)c4cccn4C)CCN3C2=O)c1	-24%[70.6 µM]
O=C(NCc1ccncc1)c1nc2c(o1)CCN(Cc1ccccc1)CC2	-24%[70.6 µM]
O=C(CC(c1ccc(Cl)cc1)c1c[nH]c2ccc([N+](=O)[O-])cc12)N1CCOCC1 (configuration not stated)	u
COc1ccccc1N1CCN(C(=O)c2ccccc2-c2ncc[nH]2)CC1=O	1%
COc1ccc2[nH]c3c(c2c1)CCNC31CCN(C(=O)c2ocnc2C)CC1	2%
O=C(NCCN1CCCCC1)c1nnn2cc(-c3ccccc3)[nH]c(=O)c12	4%
Cn1ccc(C(=O)N2CCC(N3CCCC(C(=O)N4CCCC4)C3)CC2)n1 (configuration not stated)	10%
COc1cccc(NC(=O)O[C@@H]2CO[C@H]3[C@@H]2OC[C@@H]3Nc2nccc(-c3ccccc3)n2)c1	-5%
Cn1cc(CN2CCOC[C@H]2c2ncc(-c3cccc(F)c3)[nH]2)c2ccccc21	-21%[70.6 µM]
COc1cccc(CN2CCc3nc(C4CC4)nc(-c4ccc(O)cc4)c3C2)c1	2%
CC(C)C[C@@H]1N[C@H](C(=O)N2CCCC2)Cc2cn(Cc3ccccn3)c3cccc1c23	2%[70.6 µM]
COc1ccc(N2CCN(c3nc(C(=O)NCC4CCCCC4)cs3)CC2)cc1	-15%
O=C(Cc1ccccc1Cl)N[C@@H]1CN(c2ncccn2)C[C@H]1CO	1%
Cc1ccccc1C(=O)N1CCC(CCC(=O)NCCc2c[nH]c3ccccc23)CC1	-4%
CCOC(=O)C1(Cc2ccc(F)cc2)CCCN(C(=O)c2ccco2)C1 (configuration not stated)	2%
CN1C(=O)C(c2ccccc2)CC12CCN(C(=O)Cc1ccccn1)CC2 (configuration not stated)	-5%
COCC(=O)N1CCCN(C(=O)CSc2ccncc2)CC1	-1%
CCN(CC)C(=O)[C@@H]1CCC[C@@H](NC(=O)c2ccc(C#N)cc2)CN(C)C(=O)C1	4%[70.6 µM]
COc1ccc(CC2CN(C(=O)c3cccnc3SC)CCO2)cc1 (configuration not stated)	-1%
Cc1noc(C)c1-c1cc2c(cc(C)n2C)c(-c2ccc(CO)cc2)n1	1%[70.6 µM]
CC(=O)NC1(C)CCN(Cc2cccc(-c3ccc4ccccc4c3)c2)C1 (configuration not stated)	u
CN1CCN(Cc2nc(C3(O)CCN(C4COC4)CC3)cs2)CC1	3%[70.6 µM]
COc1ccc(N2CC(C(=O)NCc3cccc(F)c3)NC2=O)cc1 (configuration not stated)	15%&11%
Cc1noc([C@@H]2CN(Cc3ccncc3F)C[C@H]2CO)n1	-1%
Cc1cccc(Cl)c1NC(=O)Cn1c(C)cc2nc3n(c(=O)c21)CCCC3	-1%
Cc1ccc2oc([C@H]3CCN(C(=O)C4CC4)C3)nc2c1	5%[70.6 µM]
COc1ccc(NC(=O)N2Cc3[nH]cnc3C[C@H]2c2nc(-c3ccccc3)no2)cc1	-21%[70.6 µM]
Cc1ccccc1OCC1CN(CC(C)C)C(=O)c2c(ccnc2-c2ccc(OCC(=O)O)cc2)O1 (configuration not stated)	3%
COc1ccc(CNC(=O)C2CN(S(=O)(=O)C3CC3)CC23CCCCC3)cc1 (configuration not stated)	2%
CN(Cc1ccccc1)Cc1nnc(C(=O)N2CCC[C@@H]2c2ccc(Br)cc2)n1Cc1ccccc1	-20%
O=c1c2nc(-c3ccccc3)ccc2ncn1-c1ccc(F)cc1F	7%[70.6 µM]
COc1cccc(C(=O)N2CCC3(CC2)CC(OCC2CC2)CCO3)c1 (configuration not stated)	8%
C=CCCC(CN1CCCC1)Oc1ncc(F)c(N2CCCC2)n1 (configuration not stated)	-6%
CCS(=O)(=O)N1C[C@@H](Oc2cccnc2)C[C@H]1C(=O)N1CCCC1	-3%
CCn1ncc(N2CCCC(CC(=O)O)C2)cc1=O (configuration not stated)	1%
Cc1ccc(C)c(C(=O)N2CC(C(=O)N(C)C)C3(CCOCC3)C2)c1 (configuration not stated)	-2%

The list goes on.
SMILES	NPR1 antag
CCn1ccc(C(=O)N2CCC3(CC2)c2[nH]c4ccc(OC)cc4c2CCN3C)n1	8%
CC(C)N1C(=O)C2(CCCC2)C1C(=O)NCc1ccccn1 (configuration not stated)	5%
COc1cccc(CC(=O)NCCC2CCN(C(=O)Nc3ccc(C)cc3)CC2)c1	-1%
CN(C)CCN(Cc1ccco1)C(=O)Cn1nc2n(c1=O)CCC(N)CC2 (configuration not stated)	2%
NC(=O)[C@H](Cc1cccs1)NC(=O)C1=C[C@@H](NC(=O)c2ccc(F)c(Cl)c2)[C@@H](O)[C@H](O)C1	-3%
O=C(c1ccco1)N1CCC(n2cc(-c3nc(-c4ccccc4)no3)nn2)CC1	-2%
CN(Cc1ccccc1)C1CCOC2(CCN(C(=O)NC3CCCC3)CC2)C1 (configuration not stated)	4%
COCC(=O)N[C@H]1C[C@H]2C(=O)NC[C@@H](CCC(=O)N3CCN(c4ccccn4)CC3)N2C1	1%
Cn1c(CN2CCC(O)CC2)nnc1C1CCCN(C2CCNCC2)C1 (configuration not stated)	5%
CCNC(=O)c1c(C)oc2c1CN(Cc1sccc1C)CC2	-17%
COc1ccc(-c2ccnc3nc(C(C)C)nn23)cc1	-3%
CC1=C[C@@H](CN2CCN(c3cnccn3)CC2)[C@H](C(C)C)C[C@H]1Cc1nnc(-c2ccccc2)o1	-30%
CC(C)CCN1CCC(N2CCN(S(=O)(=O)C(C)C)CC2)C1=O (configuration not stated)	4%
O[C@@H]1C[C@@H](c2nc(Cc3ccc(F)cc3Cl)no2)N(Cc2cccs2)C1	2%[70.6 µM]
Cc1cnccc1CN(C)C(=O)c1cc(COc2ccc(-n3cncn3)cc2)on1	7.1µM*
CC(C)NC[C@H]1O[C@H](Cc2cc(CN(C)Cc3ccccc3)on2)CC[C@@H]1O	3%[70.6 µM]
Cc1cc2nc3n(c(=O)c2n1CC(=O)NCc1ccccc1Cl)CCCCC3	1%
Cc1ccc2nc3n(c2c1)[C@@H](CNC1CCN(C)CC1)COC3	1%[70.6 µM]
CC(C)n1cc2cc(C(=O)N3CCSCC3)sc2c1	2%
Cc1noc(C)c1[S+](=O)([O-])N1CCCC2(COc3ccccc3C(=O)N2)C1 (configuration not stated)	u
Fc1ccc(CNC[C@H]2Cn3c(-c4ccc5c(c4)OCCO5)cnc3CO2)cc1	u
O=C(NC1CCCCC1)N1CCc2nnc(C3CC3)n2CC1	4%
O=C([C@@H]1C[C@H](F)CN1S(=O)(=O)c1ccc(F)cc1)N1CCc2ccccc2C1	-16%
CCC(C)NC(=O)CC1Sc2ncccc2N(C)C1=O (configuration not stated)	-4%
Cc1oc(C(O)c2ccccc2)nc1C(=O)Nc1ccc2c(c1)NC(=O)CO2 (configuration not stated)	2%[70.6 µM]
C1CC(C2CCN(C3CCOCC3)CC2)CN1 (configuration not stated)	1%
COC(=O)[C@H]1CCCN1C(=O)[C@@H]1[C@@H](NC(=O)NC(C)C)CCN1C(=O)c1cccn1C	0%[70.6 µM]
COc1ccccc1NC(=O)Cn1c(-c2ccccc2)nc(C)cc1=O	-6%
CNC(=O)CCn1ncc2cc(OCc3ccccc3-c3ccc(F)cc3C)ccc21	-22%[70.6 µM]
COCCOCc1nc(C2CCCCN2C(=O)NCc2ccccc2)no1 (configuration not stated)	3%
O=C(c1ccc(OC2CCN(Cc3c[nH]c4ccccc34)CC2)cc1)N1CCCCC1	7%
Cc1cc(=O)cc(C(=O)N2CCC3(CCCN(C(C)C)C3=O)C2)o1 (configuration not stated)	-2%
O=C([C@@H]1C[C@H](Oc2cccnc2)CN1C(=O)NCCc1ccccc1)N1CCOCC1	-2%
Cc1ccccc1CC(=O)N1CCC[C@H]1c1nc(-c2ccc(F)cc2)no1	5%
CCCN(CC1CCOC1)C(=O)Nc1cc(F)c(F)c(F)c1 (configuration not stated)	3%
CC(=O)N1C[C@@H]2CCCN3CCC[C@@H]([C@H]23)[C@H]1CCCC(=O)N(C)C	1%
Cc1nnc2ccc(N3CCC(C)CC3)nn12	7%
Cc1nc(CN2CCCC(c3[nH]ncc3Cc3ccccc3)C2)co1 (configuration not stated)	-9%
COc1cc(OC)cc(C(=O)NCC2CCCN(C(=O)C3=C(C)OCCO3)C2)c1 (configuration not stated)	3%
CCN1CC2(CCN(C(=O)c3cc4c(nc3OC)CCC4)CC2)OC1=O	11%
O=C(C[C@@H]1O[C@H](CNC(=O)Nc2ccccc2)[C@@H](O)[C@H]1O)NCc1cccnc1	3%[70.6 µM]
O=C(Nc1cccc2ccccc12)O[C@@H]1CO[C@H]2[C@@H]1OC[C@@H]2NC(=O)C1CCC1	-2%[70.6 µM]
CN1CCC(OC2CCN(S(=O)(=O)c3ccccc3F)CC2)CC1	4%
COc1ccc(-c2ccnc3nc(-c4ccco4)nn23)c(F)c1	3%
Cc1ccsc1C(=O)N1CCc2nn(CC3CC3)c(=O)n2CC1	-4%
CN1CCCCCC(O)c2cc(C(=O)NCCC3=CCCCC3)ccc21 (configuration not stated)	-2%
O=C(Nc1ccccc1)N1CCn2c(nn(-c3ccc(C(F)(F)F)cc3)c2=O)C1	u
COCCCNC(=O)N1CCCC(c2nc(-c3cccnc3)no2)CCNC(=O)CC1 (configuration not stated)	0%
O=C(CN1CC2CC(C1)[C@H]1CCCC(=O)N1C2)N1CCN(Cc2ccc3c(c2)OCO3)CC1 (some centres not stated)	2%

In a second layout: entries from further up
NPR1 antag	molecule
3%	CCCN(CC1CCOC1)C(=O)Nc1cc(F)c(F)c(F)c1 (configuration not stated)
1%	CC(=O)N1C[C@@H]2CCCN3CCC[C@@H]([C@H]23)[C@H]1CCCC(=O)N(C)C
7%	Cc1nnc2ccc(N3CCC(C)CC3)nn12
-9%	Cc1nc(CN2CCCC(c3[nH]ncc3Cc3ccccc3)C2)co1 (configuration not stated)
3%	COc1cc(OC)cc(C(=O)NCC2CCCN(C(=O)C3=C(C)OCCO3)C2)c1 (configuration not stated)
11%	CCN1CC2(CCN(C(=O)c3cc4c(nc3OC)CCC4)CC2)OC1=O
3%[70.6 µM]	O=C(C[C@@H]1O[C@H](CNC(=O)Nc2ccccc2)[C@@H](O)[C@H]1O)NCc1cccnc1
-2%[70.6 µM]	O=C(Nc1cccc2ccccc12)O[C@@H]1CO[C@H]2[C@@H]1OC[C@@H]2NC(=O)C1CCC1
4%	CN1CCC(OC2CCN(S(=O)(=O)c3ccccc3F)CC2)CC1
3%	COc1ccc(-c2ccnc3nc(-c4ccco4)nn23)c(F)c1
-4%	Cc1ccsc1C(=O)N1CCc2nn(CC3CC3)c(=O)n2CC1
-2%	CN1CCCCCC(O)c2cc(C(=O)NCCC3=CCCCC3)ccc21 (configuration not stated)
u	O=C(Nc1ccccc1)N1CCn2c(nn(-c3ccc(C(F)(F)F)cc3)c2=O)C1
0%	COCCCNC(=O)N1CCCC(c2nc(-c3cccnc3)no2)CCNC(=O)CC1 (configuration not stated)
2%	O=C(CN1CC2CC(C1)[C@H]1CCCC(=O)N1C2)N1CCN(Cc2ccc3c(c2)OCO3)CC1 (some centres not stated)
